High-throughput results deposited in PubChem BioAssay by several laboratories.
BJeLR viability: kills HRASV12-expressing BJeLR cells; AID 1554; actives 0.17% (n = 300,000); BJeLR (HRASV12) viability, CellTiter-Glo ATP luminescence, 48 h; reference of the scale not given here; inhibition, % (no concentration beside the values);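 active = replicate mean above 50%; inconclusive = above 50% but judged a plate artefact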;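 also: 50 nL library stock added to about 25 µL; numbers are from one replicate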
PrP UTR inh: suppresses PrP 5' UTR mRNA reporter expression. cell-based PrP 5' UTR mRNA reporter, plate reader. inhibition, % (no concentration beside the values). actives 0.35% (n = 340,000);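 active = every replicate at 50% or more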;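 also: 0 = median of the neutral control wells; tested in H4 reporter cells; numbers are from one replicate; inactives centre near -14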
Mtb hypoxia inh: reduces hypoxia-regulated biosensor signal in M. tuberculosis | M. tuberculosis hypoxia-regulated fluorescent reporter, fluorescence | fluorescence inhibition, % (test concentration not listed) | actives 0.1% (n = 300,000) | AID 1159583;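 active = 35 to 45% if threefold the growth effect, above 45% if 1.5-fold the growth effect; inactive = the rest, general growth blockers included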;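 also: wells of about 50 µL received 100 nL stock; 0% = vehicle wells and 100% = reference inhibitor wells; whole bacteria with a GFP reporter of the hypoxia response; strong numbers were not always called active; many hits fall short of the cut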
Sa ugtP lethal: compounds lethal to S. aureus RN4220 ugtP deletion mutant; AID 1259309; OD600 growth, 16 h; some inactives read as strong as hits; growth inhibition, % (concentration not given with the values); actives 0.54% (n = 330,000);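 active = z-score under -3 and OD600 up to 0.15 on both plates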;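 also: plate controls were untreated wells for no effect and antibiotic for full effect; wells of about 80 µL received 100 nL stock; the first replicate is given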
Autofluor counter: compound fluorescence in toxin protease inhibitor counterscreen | fluorescence intensity (no concentration beside the values) | actives 3.1% (n = 360,000) | compound autofluorescence counterscreen, microsphere flow cytometry; hits give high values | AID 624483;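 active = at least 3 SD above the mean of all compounds, about 16000 in these data; inconclusive = too few beads counted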;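 also: 100 nL of 1 mM stock went into each well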
Sa RN4220 lethal: kills Staphylococcus aureus RN4220; AID 1259311; S. aureus RN4220 growth, OD600, 16 h; actives 0.33% (n = 330,000); inhibition, % (concentration not given with the values);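 active = z-score of -3 or lower and OD600 up to 0.18 on both plates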;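 also: plate controls were untreated cells for no effect and reference antibiotic for full effect; stock transfer was 100 nL into about 80 µL; one replicate is shown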
Mtb hypoxia inh growth: further read-out of Mtb hypoxia inh, marked with its call; growth inhibition, %; measured here: M. tuberculosis growth (absorbance);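 0% = vehicle and 100% = reference antibiotic; read after six days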
* = called active by the depositor; ? = inconclusive; / = no result given.

SMILES	BJeLR viability	PrP UTR inh	Mtb hypoxia inh	Mtb hypoxia inh growth	Sa ugtP lethal	Autofluor counter	Sa RN4220 lethal
O=C(O)c1ccc(N2CC3CC(C2)c2cccc(=O)n2C3)c(NC(=S)Nc2ccc(Br)cc2)c1 (configuration not stated)	2	-11	-1	7	-16	4530	-1.3
CC(=O)c1ccccc1Oc1nc(CN2CCOCC2)nc2scc(-c3cccs3)c12	-10	10	-7	1	-6	4105	-0.8
CC(C)C(C(=O)Nc1nccs1)N1C(=O)c2ccccc2C1=O (configuration not stated)	-6	-26	4	2	2	4873	2.8
Cc1sc2nc(CN(Cc3cccs3)C(=O)NC3CCCCC3)[nH]c(=O)c2c1C	-3	-2	/	/	-4	4919	18
Fc1cccc2sc(N3CCCCC3)nc12	-7	-64	-70	-13	10	4070	16
CN(CC1COc2ccccc2O1)C(=O)c1ccc(N(C)C)cc1 (configuration not stated)	5	-25	19	16	4	4444	3.9
O=C(c1cc2ccccc2o1)N1CCN=C1SCc1cccc(F)c1	-1	-12	/	/	6	5051	3.7
COCCNC(=O)CN1CCC(NC(=O)Nc2ccccc2)CC1	1	-22	10	3	6	?	4.3
O=C(NC1CCC(=O)N(CCC(Oc2ccccc2)c2ccccc2)CC1)OCc1ccccc1 (configuration not stated)	/	/	-2	10	7	/	-1.2
COC(=O)C1=C(C)N(Cc2ccccc2)C(=NCc2cc(OC)c(OC)c(OC)c2)N[C@H]1c1cccc(F)c1	3	10	/	/	/	3992	/
Cc1cc(Nc2ccccc2Cl)c2ccccc2n1	12	4	9	-2	13	3422	2.1
Cc1ccc(-c2cc3nc(-c4ccccc4)cc(N4CCC5(CC4)OCCO5)n3n2)cc1	4	-6	/	/	9	4851	-8.0
O=c1sc2ccccc2c(N2CCN(c3ccccc3)CC2)c1[N+](=O)[O-]	-6	-3	5	12	4	3717	11
CCCC[n+]1ccn(C2=C([O-])c3ccccc3C(=O)/C2=N\S(=O)(=O)c2ccccc2)c1	6	-31	19	8	1	/	9.8
COc1cccc(CNC(=O)C(NS(=O)(=O)c2ccc3c(c2)CCN3C(C)=O)C(C)C)c1 (configuration not stated)	5	-3	-1	-2	7	4496	3.5
COc1ccc2c3c([nH]c2c1)C(C)=NCC3	11	-11	9	3	6	7236	7.8
Cc1ccc(OCC(=O)N/N=C\c2cccs2)c([N+](=O)[O-])c1	-3	-32	/	/	/	2331	/
CC(C)(C)NC(=O)C(c1ccncc1)N(Cc1cccs1)C(=O)c1csnn1 (configuration not stated)	8	-19	13	2	11	4494	4.8
C[C@H](NC(=O)c1ccco1)C(=O)N1CCCC1	-8	-14	0	1	3	3350	-2.3
Cc1onc(-c2ccccc2Cl)c1C(=O)N1CCOC12CCCCC2	0	11	1	6	5	3345	4.2

2 entries from above, with two lines to a compound:
Value order – BJeLR viability, PrP UTR inh, Mtb hypoxia inh, Mtb hypoxia inh growth, Sa ugtP lethal, Autofluor counter, Sa RN4220 lethal
COc1ccc2c3c([nH]c2c1)C(C)=NCC3
    11, -11, 9, 3, 6, 7236, 7.8
Cc1ccc(OCC(=O)N/N=C\c2cccs2)c([N+](=O)[O-])c1
    -3, -32, /, /, /, 2331, /

Other structures
SMILES	BJeLR viability	PrP UTR inh	Mtb hypoxia inh	Mtb hypoxia inh growth	Sa ugtP lethal	Autofluor counter	Sa RN4220 lethal
Clc1ccc(N2CCN(c3nc4nonc4nc3N3CCSCC3)CC2)nc1	3	-22	6	-7	-7	4812	-0.5
O=C(CSc1ncn(-c2ccccc2)n1)N1CCN(c2ccccc2)CC1	-5	-25	/	/	5	4608	-1.0
O=C(N/N=C/C=C/c1cccc([N+](=O)[O-])c1)c1ccncc1	0	-44	/	/	/	3445	/
CCOc1ccccc1OCCCC(=O)NNC(=O)c1cc(C)oc1C	/	3	4	5	4	3509	0.7
CCN1C(=O)N[C@H](c2ccccc2)C(C(C)=O)=C1C	-4	-11	/	/	/	4105	/
Cc1ccnn1CCC(=O)N1CCCC(CCC(=O)NCc2ccccc2F)C1 (configuration not stated)	-22	-33	10	9	4	4120	4.3
O=C(Nc1nc2ccc(C(=O)N3CCCCC3)cc2s1)C1CCCCC1	11	-60	-9	12	2	4224	-3.0
CC(C)CC(/C(O)=C(\C#N)c1nc2ccccc2[nH]1)N1C(=O)c2ccccc2C1=O (configuration not stated)	7	-8	/	/	/	3652	/
O=C(CSc1cccc2cccnc12)Nc1cccc(S(=O)(=O)N2CCOCC2)c1	-12	5	13	5	9	3238	3.8
COc1ccc(C(=O)N[C@H](C(=O)OCCCOC(=O)[C@@H](NC(=O)c2ccc(OC)cc2)C(C)C)C(C)C)cc1	/	-24	11	6	10	3114	-4.0
COc1cccc(NC(=O)C(=O)NCCC2CCCCN2S(=O)(=O)c2ccccc2)c1 (configuration not stated)	1	-43	9	-1	6	4567	1.0
COc1ccc(N)cc1S(=O)(=O)Nc1ccccc1Cl	-11	-13	16	2	-2	4033	4.6
COc1cc(SSc2cc(OC)cc([N+](=O)[O-])c2N)c(N)c([N+](=O)[O-])c1	0	-16	24	3	87*	3260	38
Cc1c(CNC(=O)c2cnn3c2NC(c2ccc(Br)cc2)CC3C(F)(F)F)cnn1C (configuration not stated)	0	-3	-5	4	0	2981	4.3
O=C(NC1CCCCC1)c1c2c(nc3ccccc13)CCC2	-6	-11	3	3	4	3217	8.1
O=C(CNC(=O)C1COc2ccccc2O1)Nc1ccc(F)c(F)c1 (configuration not stated)	/	2	-5	13	-4	3948	-2.1
COC(=O)C(=O)/C=C(/O)c1ccc(C)cc1	/	/	12	-4	0	/	2.9
Cc1ccc(C2(O)CN(c3ccccc3)C3=[N+]2CCS3)cc1 (configuration not stated)	8	6	0	8	-5	1856	1.4
Cc1cc(-c2ccc(S(=O)(=O)Nc3ccc(C#N)cc3)s2)on1	2	5	11	-2	8	4236	-2.4
COc1ccc(OC)c(S(=O)(=O)N2CCN3CCCC3C2)c1 (configuration not stated)	-11	-54	4	-3	5	5423	1.3

Entries of single compounds from above. Order of values: BJeLR viability	PrP UTR inh	Mtb hypoxia inh	Mtb hypoxia inh growth	Sa ugtP lethal	Autofluor counter	Sa RN4220 lethal
O=C(CSc1cccc2cccnc12)Nc1cccc(S(=O)(=O)N2CCOCC2)c1 as listed: -12	5	13	5	9	3238	3.8
C[C@H](NC(=O)c1ccco1)C(=O)N1CCCC1 as listed: -8	-14	0	1	3	3350	-2.3
Cc1ccc(OCC(=O)N/N=C\c2cccs2)c([N+](=O)[O-])c1 as listed: -3	-32	/	/	/	2331	/
COc1ccc(C(=O)N[C@H](C(=O)OCCCOC(=O)[C@@H](NC(=O)c2ccc(OC)cc2)C(C)C)C(C)C)cc1 as listed: /	-24	11	6	10	3114	-4.0
CCCC[n+]1ccn(C2=C([O-])c3ccccc3C(=O)/C2=N\S(=O)(=O)c2ccccc2)c1 as listed: 6	-31	19	8	1	/	9.8

Carrying on.
SMILES	BJeLR viability	PrP UTR inh	Mtb hypoxia inh	Mtb hypoxia inh growth	Sa ugtP lethal	Autofluor counter	Sa RN4220 lethal
O=C(NC1CCS(=O)(=O)C1)C(=Cc1ccco1)NC(=O)c1ccccc1 (configuration not stated)	/	/	1	-3	4	/	7.9
CCn1c(=O)[nH]c2cc(C(=O)N3CCN(c4ccccc4)CC3)ccc2c1=O	3	-12	9	6	2	22918*	2.5
O=c1[nH]n(-c2cccc(Cl)c2)c2ncccc12	-9	-18	3	5	1	4368	8.5
COc1ccc(/C=N/NC(=O)c2cc(C34CC5CC(CC(C5)C3)C4)[nH]n2)cc1OC	-5	-18	/	/	/	2286	/
CN(C)c1ccc(S(=O)(=O)c2ccc(Cl)cc2)cc1	-22	-1	-3	0	5	3409	0.3
CCCCCn1cnc2sc(CC)cc2c1=O	-9	-100	25	30	9	8254	9.6
O=C(NCc1ccc2c(c1)OCO2)C(=O)NCC1OCCN1S(=O)(=O)c1ccccc1 (configuration not stated)	4	-10	9	-2	-5	5053	0.9
CCCCN1C(=S)NC[C@@H]1C(C)CC (some centres not stated)	-14	-20	/	/	/	3440	/
Cc1ccc(NC(=O)CCC(=O)N2CCOCC2)nc1	1	-5	-3	-4	7	/	4.1
CCC(CC)c1nnc(NC(=O)CS(=O)(=O)c2ccccc2)s1	-3	-25	6	13	11	3469	8.8
CC(C)(C)NC(=O)c1cccc(NC(=O)CSc2ccccc2)c1	6	-2	-8	-6	-7	2861	-2.0
CCOC(=O)C1(CCCc2ccccc2)CCN(C(=O)c2cc(C)nc(C)n2)CC1	-11	-25	1	4	4	4310	8.0
CC=C(C)C(=O)Nc1cccc(C2=NOC3(C2)CC(C(N)=O)N(C(=O)c2ccccc2C(=O)c2ccccc2)C3)c1 (configuration not stated)	/	/	-15	11	-1	/	2.0
CCC(C)[C@@H]1NC(=O)N(CCCN2CCCC2=O)C1=O (some centres not stated)	8	-12	11	0	16	3045	-0.4
Cc1cc2c(NC(=O)Nc3ccc(C(C)(C)C)cc3)cccc2nn1	1	-13	7	2	-11	3873	-0.1
COc1ccc(N2C(=S)NC(C)(C)CC2(C)c2ccc(OC(C)=O)cc2OC(C)=O)cc1 (configuration not stated)	0	-25	2	0	0	4548	5.5
Cc1ccc(C(=O)Cc2nc3ccccc3[nH]2)cc1	-7	-21	-2	-3	7	4110	-2.0
OCCNCc1cc(Br)ccc1OCc1ccc(Cl)cc1	-5	/	16	9	-21	11781	-0.1
COc1ccc(C(=O)Nc2oc(-c3ccccc3)c(-c3ccccc3)c2C#N)cc1OC	-11	-23	5	8	-20	4352	-0.2
COc1ccc(S(=O)(=O)N2CCCCC2)cc1NC(=O)CCNC(=O)c1ccc(Cl)cc1	/	-8	-9	-8	-2	2988	-0.4
COc1ccccc1NC(=S)N1CCN(Cc2ccc3c(c2)OCO3)CC1	-3	-8	3	1	5	1998	-0.7
COc1ccc(-c2nnc(NC(=O)c3ccc(F)cc3)o2)cc1	36	-12	-2	-1	-8	5238	20
CCOc1ccc(N2C(=O)CC(NC3CCN(C(=O)c4ccc(F)cc4)CC3)C2=O)cc1 (configuration not stated)	1	-11	8	3	4	5271	2.7
O=C(NNc1ccccc1)Nc1cc(Cl)ccc1Cl	/	-7	4	9	-3	3647	4.3
CCCC(=O)Oc1ccccc1C1SCc2cc(C)c(C)cc2CS1	-1	-2	3	3	-14	4716	-2.9
CC(C(=O)Nc1ccc(O)cc1)c1cccc(C(=O)c2ccccc2)c1 (configuration not stated)	6	-9	7	13	6	4838	1.3
Cc1ccccc1OCC(=O)Nc1cccc(S(=O)(=O)NC2=NCCCCC2)c1	0	0	9	3	2	?	2.3
CCOC(=O)/C(C#N)=C\c1ccc(O)c(OC)c1	4	-9	6	7	5	2558	3.4
Cc1cc(N2CCOCC2)c2c(N)cc(C)c(C)c2n1	-6	-32	10	11	1	3289	8.3
O=c1cc(C(O)C[N+](=O)[O-])occ1OCc1ccccc1 (configuration not stated)	2	/	1	-7	0	6629	0.7
CCOC(=O)c1sc2nc(C)n(CC(=O)NCC3CCCO3)c(=O)c2c1C (configuration not stated)	-1	2	16	5	3	5305	7.0
O=C1CCCC2=C1C(c1ccncc1)c1c(nc(SCc3ccccc3Cl)[nH]c1=O)N2 (configuration not stated)	/	-18	/	/	7	4443	5.9
Cc1noc(C)c1COC(=O)C1(c2cccc(F)c2)CCCC1	1	-12	12	3	8	3516	10.0
O=C1C(Cl)=C(N2CCCCC2)C(=O)N1Cc1ccccc1	-2	-12	-1	6	20	2288	0.7
CCN(CC)c1nc2ccccc2[nH]c1=O	3	0	12	5	6	3331	3.6
CCCN(CCC)C(=O)c1cc(S(=O)(=O)N2CCCCC2)c[nH]1	8	-15	10	0	16	4256	3.4
O=C(CCn1c(=O)c2ccccc2n(Cc2cccnc2)c1=O)NCc1ccc2c(c1)OCO2	0	5	/	/	7	2118	4.8
CCOc1ccccc1NC(=O)CSc1ccc([N+](=O)[O-])cc1	2	-14	4	0	-5	3229	0.3
CNC(=S)N1CCN(c2ccc(OC)cc2)CC1	4	-20	12	10	5	8036	2.6
CCCc1nn(C)c(C(=O)Nc2ccccc2)c1Cl	13	-11	1	2	6	2015	7.6
COC(=O)COc1ccc2c(=O)c(Oc3ccccc3Br)coc2c1	-5	3	8	15	-1	3194	1.6
COc1ccccc1NC(=O)c1nn(-c2cccc(C(F)(F)F)c2)ccc1=O	-7	-9	/	/	-9	3838	4.7
COc1ccc(C2NC(=O)c3ccccc3N2)cc1 (configuration not stated)	3	-23	1	9	6	2915	1.3
N#CC1=C(N)Oc2ccccc2C12C(=O)Nc1n[nH]c(-c3ccccc3)c12 (configuration not stated)	2	55	/	/	-3	2727	27
